AmpC inh no det: Promiscuous and Specific Inhibitors of AmpC Beta-Lactamase (assay without detergent); P00811; Potency, µM (titrated, usually from 28.7 µM), inactives show at the top dose activity change, negative = inhibition; AID 585, 2007; AmpC nitrocefin hydrolysis, absorbance 480 nm, no detergent; potencies from a single point are estimates; 71,000 compounds, 1.8% hits; active = falling curve, for most hits resting on a single point; inconclusive = weak or doubtful change; inactive = flat or rising curve; further: % of control where 0% means no effect; about half of the hits show no inhibition at the top dose; a quarter of the inactives give rising signals
Target sequence (P00811 whole entry, looked up): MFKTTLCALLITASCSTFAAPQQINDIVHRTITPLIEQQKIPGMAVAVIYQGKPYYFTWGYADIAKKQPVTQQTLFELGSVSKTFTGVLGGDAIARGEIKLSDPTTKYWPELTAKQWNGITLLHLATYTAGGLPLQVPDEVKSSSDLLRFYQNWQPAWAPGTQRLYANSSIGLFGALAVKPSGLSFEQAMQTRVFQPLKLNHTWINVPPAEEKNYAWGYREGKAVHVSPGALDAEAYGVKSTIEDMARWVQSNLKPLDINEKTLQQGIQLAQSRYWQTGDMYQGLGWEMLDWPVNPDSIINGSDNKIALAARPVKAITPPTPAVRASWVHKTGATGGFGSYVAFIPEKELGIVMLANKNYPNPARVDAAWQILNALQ
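Enzyme, pH 7.0 phosphate. Compound titrations were pre-incubated with AmpC for 15 min at room temperature before nitrocefin (stock 800 uM) addition; product formation was recorded at 480 nm every 20 s for 4 min.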
Starred values were filed as active, the others as inactive; ? = inconclusive; & = joins results of further samples; [ ] = another dose, or the depositor's remark. Potency means the concentration at half of the fitted maximal effect. Some of the compounds tested (hit frequency here may not be typical).

SMILES	AmpC inh no det
COc1ccc(O)c(C(=O)c2cnc3onc(C)c3c2)c1	-4%
CCN(C(=O)CSc1nnnn1-c1cc(C)ccc1OC)C1CCS(=O)(=O)C1 (stereo not drawn)	43%
CC(C)n1cc(C(=O)N(CC(=O)NC2CCCC2)Cc2ccccc2)cn1	22%
Cc1ccccc1OCC(=O)Nc1ccc2c(c1)COC2=O	-2%
CC(CCc1ccco1)NC(=O)c1cc2c(-c3ccccc3F)nn(C)c2s1 (stereo not drawn)	82%
NS(=O)(=O)c1nc(S(=O)(=O)O)c2[nH]cnc2n1	-2%[5.75 µM]
Cn1c(=O)c2c(nc(NCc3cccnc3)n2Cc2cccc(C(F)(F)F)c2)n(C)c1=O	78%
CCCC(=O)NCc1nc2ccccc2n1C	-7%
O=C(NCCc1c[nH]c2ccccc12)c1ccc(-n2cnnn2)cc1	-8%
CCNc1ncc2nc(-c3ccc(Cl)cc3)c(=O)n(Cc3ccc(F)cc3)c2n1	0%

In another format: four of the compounds above.
> Cn1c(=O)c2c(nc(NCc3cccnc3)n2Cc2cccc(C(F)(F)F)c2)n(C)c1=O
  AmpC inh no det = 78%
> CCCC(=O)NCc1nc2ccccc2n1C
  AmpC inh no det = -7%
> O=C(NCCc1c[nH]c2ccccc12)c1ccc(-n2cnnn2)cc1
  AmpC inh no det = -8%
> CCNc1ncc2nc(-c3ccc(Cl)cc3)c(=O)n(Cc3ccc(F)cc3)c2n1
  AmpC inh no det = 0%

(list continues)
SMILES	AmpC inh no det
O=C(Nc1c(F)cc(F)cc1Br)C1CCCO1 (stereo not drawn)	-4%
CN1CCC(N(C)c2nc(-c3ccccc3)nc3ccccc23)CC1	30%
CCC(=O)N1c2ccccc2NC2=C(C(=O)CCC2)C1c1cccnc1 (stereo not drawn)	-12%
O=C(CN1C(=O)COc2ccccc21)N1CCCc2ccccc21	-1%
Nc1ccc(O)c(C(=O)O)c1	-9%
O=C(c1cc2ncc(Br)cn2n1)N1CCN(C(=O)c2ccco2)CC1	1%
COC(=O)c1c(C)nn(-c2ccccc2)c1N	-17%
CSc1nc(NC(C)(C)C)nc(N2CCOCC2)n1	18%
Nc1nnc(-c2cn(-c3ccccc3)nc2-c2ccccc2)o1	13%
CC1=C(C(=O)OCC2CCCO2)C(c2ccc(C)o2)C2=C(CC(c3ccc(F)cc3)CC2=O)N1 (stereo not drawn)	64%
Cc1nccn1S(=O)(=O)c1ccc(Br)cc1Br	-10%
COc1ccc(-c2[nH]nc3c2C(c2ccncc2)C(C#N)=C(N)O3)cc1 (stereo not drawn)	-14%
O=C(COC(=O)c1ccccn1)Nc1cccc(Cl)c1Cl	7%
CCOC(=O)c1ccc(Nc2cc(C)nc(N3CCOCC3)n2)cc1	82%
Cc1ccccc1-c1nc(NC2CCNCC2)c2ccccc2n1	-2%
COc1ccc(-c2nn(C)c(=O)c3ccccc23)cc1NC(=O)Cn1nc(C)c2ccccc2c1=O	94%
O=C(COC(=O)CCNS(=O)(=O)c1ccc2c(c1)OCCO2)NC1CCCc2ccccc21 (stereo not drawn)	22%
CCOC(=O)COc1ccc(S(=O)(=O)N2CCN(C(=O)OCC)CC2)cc1	40%
CCOc1ccc2[nH]c(=O)c(CN(Cc3nnnn3Cc3ccco3)C3CCCCC3)cc2c1	14%
c1ccc(CCn2nnnc2CN2CCCc3ccccc32)cc1	15%
CCOc1cc(S(=O)(=O)NCc2cccs2)ccc1Cl	-13%
COc1ccc(CCNC(=O)c2cc3c(=O)n4cccc(C)c4nc3n(Cc3ccncc3)c2=N)cc1	19%
CCCCCOC(=O)CSc1nnc(-c2ccccc2)c(=O)[nH]1	-16%
CN(C1CCCCC1)S(=O)(=O)c1ccc(NC(=O)c2ccc(Br)o2)cc1	-12%
Nc1nc(NC(=O)c2ccco2)nn1-c1ccccc1	8%
CCOC(=O)Nc1ccc2c(c1)N(C(=O)CCN1CCOCC1)c1ccccc1S2=O (stereo not drawn)	30%
COc1nc(Oc2ccc(=O)n(C)n2)nc(N(C)C)n1	-7%
Fc1ccc(Nc2nc(N3CCOCC3)c3ccccc3n2)cc1	-2%
Cc1cc(C)nc(N2C(=O)CC(C(=O)O)NC2=NCCc2c[nH]c3ccccc23)n1 (stereo not drawn)	1%
Cc1ccccc1N=C(N)Nc1ccccc1C	2%
CC(C)(C)C1CCc2onc(C(=O)NCc3ccc(F)cc3)c2C1 (stereo not drawn)	-13%
O=C(Nc1ccc2c(c1)OCO2)NC1CCN(Cc2ccccc2)CC1	-5%
O=C(CSc1nnc(COc2ccccc2)n1Cc1ccco1)Nc1ccc2c(c1)OCCO2	-2%
N#Cc1c(NC(=O)CN2CCCCC2)sc2c1CCC2	4%
CCOC(=O)C1CCCN(C(=O)Cn2nc(CC)n3c(cc4sccc43)c2=O)C1 (stereo not drawn)	78%
C[C@@]12CC[C@H](O)C[C@@H]1CC[C@H]1[C@H]2C[C@@H](O)[C@]2(C)[C@@H](C3=CC(=O)OC3)CC[C@@]12O	-10%
N#Cc1cc2nc(O)c(O)nc2cc1[N+](=O)[O-]	0%&-20%
COc1cc(OC)c(S(=O)(=O)NCc2ccco2)cc1S(=O)(=O)NCc1ccco1	-1%
N#Cc1c(N)sc(=S)c2c1CCN(Cc1ccccc1)C2	-24%
COc1nc(NCc2cccnc2)nc(OC)n1	-3%
CCCCOC(=O)c1ccc(N2C(=O)CC(N3CCN(C/C=C/c4ccccc4)CC3)C2=O)cc1 (stereo not drawn)	130%
CN(Cc1cnc2nc(N)nc(N)c2n1)c1ccc(C(=O)N[C@@H](CCC(=O)O)C(=O)O)cc1	9%
O=S(=O)(c1cccs1)N1CCc2ccccc2C1	0%
CCn1c(SCc2ccc(C(=O)OC)o2)nc2sc3c(c2c1=O)CCCC3	38%
CC1Cn2c(nc3sc4c(c3c2=O)CCC4)N1CCO (stereo not drawn)	27%
COc1ccc(C(CC(=O)O)NC(=O)Cc2ccccc2)cc1 (stereo not drawn)	-4%
CCNc1ncc2nc(-c3cccs3)c(=O)n(-c3ccccc3)c2n1	16%
CCC(C)(C)n1nnnc1C(C(C)C)N1CCN(C)CC1 (stereo not drawn)	-14%
COc1ccccc1NC(=O)CSC1CC(=O)N(c2ccc3c(c2)OCO3)C1=O (stereo not drawn)	6%
Cc1ccc(OCc2nnc(SCC(=O)NC3CCCCC3)n2C)cc1	67%

Sorted by heavy-atom count (low to high): part of the list above.
SMILES	AmpC inh no det
O=S(=O)(c1cccs1)N1CCc2ccccc2C1	0%
CC1Cn2c(nc3sc4c(c3c2=O)CCC4)N1CCO (stereo not drawn)	27%
CCNc1ncc2nc(-c3cccs3)c(=O)n(-c3ccccc3)c2n1	16%
CCn1c(SCc2ccc(C(=O)OC)o2)nc2sc3c(c2c1=O)CCCC3	38%
COc1ccccc1NC(=O)CSC1CC(=O)N(c2ccc3c(c2)OCO3)C1=O (stereo not drawn)	6%
CN(Cc1cnc2nc(N)nc(N)c2n1)c1ccc(C(=O)N[C@@H](CCC(=O)O)C(=O)O)cc1	9%
CCCCOC(=O)c1ccc(N2C(=O)CC(N3CCN(C/C=C/c4ccccc4)CC3)C2=O)cc1 (stereo not drawn)	130%

Following part.
SMILES	AmpC inh no det
COc1ccc(N2CC(C(=O)NCCc3ccc(OC)c(OC)c3)CC2=O)cc1 (stereo not drawn)	14%
O=C(c1cc(-c2cccnc2)nc2ccc(Cl)cc12)N1CCC2(CC1)OCCO2	91%
O=C(CSc1nc(-c2ccccc2)cc(=O)[nH]1)NCc1ccc2c(c1)OCO2	?
CCCc1nc(NCc2ccco2)c(C#N)c2c1COC(C)(C)C2	-18%
C=CCSc1nc2c(c(=O)[nH]1)C(C(C)C)C(C#N)=C(N)O2 (stereo not drawn)	-12%
CCCNS(=O)(=O)c1ccc(OCC(=O)NCc2ccco2)cc1	0%
O=C(NCCCCNC(=O)c1cccnc1)c1cccnc1	-4%
COc1ccc(-c2ccc(-c3noc(C(C)C)n3)c(OC)n2)cc1	53%
Cc1ccc(S(=O)(=O)/N=C(/Nc2nc(C)cc(C)n2)N2CCOCC2)cc1	6%
O=C1CSC(c2ccccn2)N1c1ccccc1 (stereo not drawn)	4%

A second format for part of the listing above:
O=C(CSc1nc(-c2ccccc2)cc(=O)[nH]1)NCc1ccc2c(c1)OCO2
- AmpC inh no det = ?

CCCc1nc(NCc2ccco2)c(C#N)c2c1COC(C)(C)C2
- AmpC inh no det = -18%

C=CCSc1nc2c(c(=O)[nH]1)C(C(C)C)C(C#N)=C(N)O2 (stereo not drawn)
- AmpC inh no det = -12%

CCCNS(=O)(=O)c1ccc(OCC(=O)NCc2ccco2)cc1
- AmpC inh no det = 0%

The list goes on.
SMILES	AmpC inh no det
O=C(C1=C(O)C(=O)N(CCc2ccccc2)C1c1cccnc1)c1ccco1 (stereo not drawn)	-8%
COC(=O)c1ccc(NC(=O)CNC(=O)C2CCCCC2)cc1	6%
O=C1NC(c2ccccc2)(C(F)(F)F)C(=O)N1Cc1cccnc1 (stereo not drawn)	14%
COc1ccc(OC)c(NC(=O)CSc2nnc(CNC(=O)COc3ccc(Cl)cc3)o2)c1	67%
CSc1nnc2c(n1)OC(C)=Nc1ccccc1-2	-7%
CCc1ccc(N(CC(=O)NC2CCCCC2)S(=O)(=O)c2c(C)noc2C)cc1	4µM*[single pt active]
CS(=O)(=O)N(CC(=O)N1CCOCC1)c1ccc2c3c(cccc13)CC2	37%
CC1CCc2nc(N)c(C#N)c(-c3cccnc3)c2C1 (stereo not drawn)	0%
CN(Cc1ccccc1)Cc1c(F)cccc1F	-2%
O=C(CN1CCN(c2ccccc2)CC1)Nc1ccc(-n2cnnn2)cc1	?
O=C(CN1CCCCC1)Nc1cccc(Cl)c1Cl	10%
CCN=c1scc(-c2ccc3c(c2)NC(=O)CO3)n1N=C1CCCC1	12%
CC(=O)N1C(=O)C2(C(C#N)=C(N)Oc3n[nH]c(-c4ccccn4)c32)c2ccccc21 (stereo not drawn)	-11%
CCn1c(CCC(=O)Nc2nc3c(s2)CCCC3)nc2cc(S(=O)(=O)N(C)C)ccc21	138%
Cc1nc2cc(N3CCN(C)CC3)c(NC(=O)Cc3ccccc3)cc2c(=O)n1Cc1ccccc1	145%
OC[C@H]1O[C@@H]2O[C@H]3[C@H](O)[C@@H](O)[C@@H](O[C@H]4[C@H](O)[C@@H](O)[C@@H](O[C@H]5[C@H](O)[C@@H](O)[C@@H](O[C@H]6[C@H](O)[C@@H](O)[C@@H](O[C@H]7[C@H](O)[C@@H](O)[C@@H](O[C@H]8[C@H](O)[C@@H](O)[C@@H](O[C@H]1[C@H](O)[C@H]2O)O[C@@H]8CO)O[C@@H]7CO)O[C@@H]6CO)O[C@@H]5CO)O[C@@H]4CO)O[C@@H]3CO	-2%
Cc1cccc(NC(=O)c2cccs2)n1	-5%
CC(C)Cn1c(SCC(=O)NC(=O)NC2CCCC2)nc2ccccc21	10%
O=C(Nc1cnc2ccccc2c1)C1COc2ccccc2O1 (stereo not drawn)	3%
COC(=O)CSC1=C(C#N)C(c2sccc2C)CC(=O)N1 (stereo not drawn)	7%
O=C(OCC(=O)N1CCc2ccccc21)c1cccnc1	-6%
Cc1csc(NC(=O)C2CCN(C(=O)CSc3nnc(C)n3Cc3ccccc3)CC2)n1	89%
C=CCn1c(SCC(=O)Nc2cc(C)ccc2OC)nnc1-c1ccco1	49%
Cc1ncsc1C(=O)Nc1nc2c(s1)CC(C)CC2 (stereo not drawn)	15%
O=C(NCc1ccc(F)cc1)c1cc(-c2cccs2)on1	1%
Nc1nc2c(s1)CC(c1ccccc1)CC2 (stereo not drawn)	7.9µM*
CCOc1ccc(-n2ccnc2SCC(=O)NCc2ccc3c(c2)OCO3)cc1	22%
O=S1(=O)C=C(N2CCOCC2)c2ccccc21	-12%
COC(=O)NC1CSCC1OC(=O)CCN1C(=O)c2ccccc2C1=O (stereo not drawn)	4%
COc1cc(CN2CCN(c3cccc(C)c3C)CC2)cc(Br)c1O	48%
COCCNC(=O)C1(C)C=CC2(CCCCC2)N1C(=O)c1ccccc1 (stereo not drawn)	34%
Cc1cc(OCC(=O)C(C)(C)C)c2c(C)c(C)c(=O)oc2c1	25%
CCOc1ccc(-c2[nH]ncc2Oc2ccccc2OC)c(O)c1	-3%
Cc1cccc(Cn2c(SCC(=O)Nc3ccccc3)nc3c2c(=O)[nH]c(=O)n3C)c1	36%
CCN(CC)C1CCCCC1NS(=O)(=O)c1ccc(Cl)cc1 (stereo not drawn)	-7%
O=C(c1ccco1)N1CCN(c2nc3ccccc3c(=O)n2-c2ccccc2)CC1	59%
O=C(OCCN1C(=O)c2ccccc2C1=O)c1ccc(S(=O)(=O)N2CCCCCC2)cc1	16%
Cc1nc2sccn2c1-c1nc(-c2cc3ccccc3o2)cs1	37%
Cn1c(SCC(=O)NC2CC2)nnc1C(F)(F)F	-11%
Cc1cccc2cc(C#N)c(N3CCN(C)CC3)nc12	22%
O=C(c1ccc(Br)o1)N(c1ccc(Br)cc1)C1C=CS(=O)(=O)C1 (stereo not drawn)	3%
CC(=O)N1CCN(C(=O)Nc2cccc(C(F)(F)F)c2)CC1	-4%
O=C(Nc1nc(-c2cccs2)cs1)c1cccc(S(=O)(=O)N2CCCCC2)c1	7.9µM*
CC(=O)c1cccc(S(=O)(=O)N2CCCC(c3nc(-c4ccc(C)o4)no3)C2)c1 (stereo not drawn)	78%
O=C(CCC(=O)NC1CCN(Cc2ccccc2)CC1)NCc1ccco1	9%
N#Cc1cc2c(nc1SCC(=O)NCc1ccc3c(c1)OCO3)CCCCC2	-8%
CCC(c1nnnn1CC1CCCO1)N(CCN1CCOCC1)Cc1cc2cc(C)ccc2[nH]c1=O (stereo not drawn)	31%
CC[C@@]1(O)C(=O)OCc2c1cc1n(c2=O)Cc2cc3c(CN(C)C)c(O)ccc3nc2-1	-4%[5.75 µM]
Cc1[nH]c2ccc(S(N)(=O)=O)cc2c1C	5%
CC1CCc2cccc3c2N1c1cc(C#N)c(C#N)cc1O3 (stereo not drawn)	-7%
